Vif A3G – inhibitors of Vif binding to APOBEC3G peptide, primary screen, biochemical, TR-FRET, GST-Vif 1-94, biotin-A3G peptide, dose response retest (AID 1117319) | inhibition, %; hits with a dose series show IC50 in µM | TR-FRET GST-Vif / biotin-A3G peptide binding; higher % means a stronger effect; test concentration not given here; strong numbers were not always called active | actives 0.57% (n = 260,000);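 active = above the screen mean plus three standard deviations and confirmed in dose response; inconclusive = results disagree or hit not tested in dose response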;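 also: Vif residues 1-94 fused to GST binding biotinylated APOBEC3G peptide 110-148; 0% = full assay without inhibitor and 100% = GST in place of GST-Vif; retest series ran down from 100 µM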
B2AR ag – human beta-2 adrenergic receptor agonism by FAP; response, % (no concentration beside the values); actives 0.43% (n = 340,000); P07550; Am2.2-beta2AR cells, FAP receptor internalization, flow cytometry; reference of the scale not given here;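 active = response above a set limit, near 3 SD of response in nonfluorescent compounds, cut at about 42% in these data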;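 also: stock transfer was 100 nL into about 11 µL; a reference agonist was the positive control; negative values mostly stem from fluorescent compounds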
Calb FLC – C. albicans growth modulation with fluconazole; C. albicans CaCi-2 (fluconazole-resistant clinical isolate) + fluconazole, Alamar Blue growth, 48 h; growth inhibition, % (concentration not given with the values); actives 0.57% (n = 300,000);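 active = most replicates above 75%; inconclusive = exactly half above 75%; inactive = most below 75%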;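 also: all wells also contain fluconazole at 8 µg/ml as a sub-toxic cotreatment; 0% = median of DMSO wells and 100% = median of geldanamycin control wells; wells of about 8 µL received 7.5 nL stock; the first replicate is given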
ALR inh – human ALR oxidase inhibition via reduced H2O2; P55789; purified ALR, DTT oxidation, H2O2 HRP-luminol luminescence; inhibition, % (concentration not given with the values); actives 3.8% (n = 290,000);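 active = mean and each replicate at 75% or more; inconclusive = only one of the two met; inactive = neither met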;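 also: stock transfer was 7.5 nL into about 7.5 µL; 0% = neutral wells and 100% = wells with inactivated enzyme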
HNF4A DNA FP – change in binding of human HNF4 alpha to DNA; actives 0.3% (n = 360,000); AID 1224865; P41235; HNF4a-FITC DNA binding, fluorescence polarization, 1 h; activity change, % at 10 µM; in the data active = activity change above about 30%, passing the limit was not always enough;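 also: controls were the assay level and a saturating level of protein; the project sought stronger binding though the title names inhibitors; some compounds called inactive have numbers as strong as hits; positive values seem to mean higher polarization but the record does not say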
RanGTP-Impb inh – disruptors of Ran-importin-beta complex formation – biochemical, FRET, CFP-Ran, YFP-importin-beta, homogeneous, primary screen; cell-free CFP-Ran/YFP-importin-beta FRET ratio; actives 1.1% (n = 300,000); AID 2216; inhibition, % (no concentration beside the values);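 active = most replicates above 15%; inconclusive = exactly half above 15%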;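 also: 0% = DMSO wells and 100% = Ran loaded with GDP instead of GTP; wells of about 40 µL received 100 nL stock; the first replicate is given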
LANA-H2B inh – blocks KSHV LANA binding to histone H2A/H2B | actives 0.6% (n = 320,000) | Q9QR71 | inhibition, % (test concentration not listed) | cell-free LANA-H2A/H2B peptide, fluorescence polarization; in the data active = inhibition mostly above about 10%, no sharp cut-off; inactive = mostly below about 6.7%;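 also: stock transfer was 7.5 nL into about 10 µL; 0% = median of vehicle wells and 100% = median of positive control wells; one replicate is shown; the record names a cut of 25% in any replicate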
Target sequence (Q9QR71 whole entry, looked up): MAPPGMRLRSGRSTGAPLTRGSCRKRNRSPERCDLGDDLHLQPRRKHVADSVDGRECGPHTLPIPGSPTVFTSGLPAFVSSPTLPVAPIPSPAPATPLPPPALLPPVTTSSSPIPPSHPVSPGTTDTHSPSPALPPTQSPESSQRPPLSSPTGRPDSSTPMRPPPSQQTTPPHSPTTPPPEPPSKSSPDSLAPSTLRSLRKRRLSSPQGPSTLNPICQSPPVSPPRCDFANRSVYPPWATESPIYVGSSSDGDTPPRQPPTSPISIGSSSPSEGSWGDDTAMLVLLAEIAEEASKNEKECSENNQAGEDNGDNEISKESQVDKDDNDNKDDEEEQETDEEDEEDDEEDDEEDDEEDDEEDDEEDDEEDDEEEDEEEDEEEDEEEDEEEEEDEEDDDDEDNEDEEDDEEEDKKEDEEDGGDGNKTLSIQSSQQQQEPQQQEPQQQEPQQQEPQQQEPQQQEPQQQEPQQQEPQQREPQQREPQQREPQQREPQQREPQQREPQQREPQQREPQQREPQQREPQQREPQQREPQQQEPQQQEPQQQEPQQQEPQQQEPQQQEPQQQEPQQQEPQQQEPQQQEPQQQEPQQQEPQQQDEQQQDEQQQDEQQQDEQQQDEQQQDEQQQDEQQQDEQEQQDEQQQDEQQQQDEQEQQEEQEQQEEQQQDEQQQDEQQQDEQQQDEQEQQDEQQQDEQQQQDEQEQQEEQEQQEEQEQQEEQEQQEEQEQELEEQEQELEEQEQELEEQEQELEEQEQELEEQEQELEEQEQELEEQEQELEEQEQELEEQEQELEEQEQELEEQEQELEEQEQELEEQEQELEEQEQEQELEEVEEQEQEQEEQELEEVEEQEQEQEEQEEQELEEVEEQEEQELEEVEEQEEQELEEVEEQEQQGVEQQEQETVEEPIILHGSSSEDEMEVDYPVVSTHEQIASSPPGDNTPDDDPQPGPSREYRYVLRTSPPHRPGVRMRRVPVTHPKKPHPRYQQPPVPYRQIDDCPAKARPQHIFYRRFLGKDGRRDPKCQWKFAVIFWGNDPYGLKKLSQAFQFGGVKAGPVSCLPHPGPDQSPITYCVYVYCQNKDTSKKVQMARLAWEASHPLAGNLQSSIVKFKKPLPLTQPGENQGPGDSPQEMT
Starred values were filed as active, the others as inactive; ? = inconclusive; . = no result given.

Under each structure – Vif A3G, B2AR ag, Calb FLC, ALR inh, HNF4A DNA FP, RanGTP-Impb inh, LANA-H2B inh
1	COc1ccc(NC(=O)Nc2cccc3c2O[C@H](CN(C)C(=O)Nc2ccc(C(F)(F)F)cc2)[C@@H](C)CN([C@H](C)CO)C3=O)cc1
    ., 5, ., -9, 3.6, ., 2.0
2	O=C(N/N=C\c1ccc([N+](=O)[O-])s1)c1cncc(Br)c1
    12%, -4, 108*, -48, 7.2, -4.3, 4.5
3	Cc1ccc(NC(=O)/C(C#N)=N/Nc2ccc(C(=O)O)cc2)c(C)c1
    12%, 1, 6, 76*, -0.5, 0.9, 5.2
4	CCc1ccc([C@@H]2CC=C(C(=O)O)[C@H](c3cccc(Cl)c3)N2S(=O)(=O)c2ccc(C)cc2)cc1
    ., -3, ., 6, 0.0, ., -8.2
5	N#CCC(=O)N/N=C/c1coc2ccccc2c1=O
    6%, 0, -7, -3, 2.1, 1.5, 1.9
6	O=c1c2c(-c3cccs3)csc2ncn1-c1ccc(Br)cc1
    -3%, -17, 14, ., 3.6, ?, 3.8
7	CC(C)CCNC(=O)c1cn(CC(C)C)c(=O)c2c1c1ccccc1n2C
    -10%, -4, 4, 0, 18, -3.8, 1.3
8	COc1ccc2cc(N=Cc3nc(-c4ccc(C)cc4)oc3O)cnc2c1
    3%, 3, 16, 1, -5.5, 6.6, -5.6
9	CC(C)CCCC(C)CCOC(=O)CN1CCCC1 (configuration not stated)
    3%, 8, 8, 0, 5.0, 6.9, 1.6
10	CCOc1ccc(N(CC(=O)NC2CCCCC2C)S(=O)(=O)c2c(C)noc2C)cc1 (configuration not stated)
    8%, -2, -3, -2, 8.3, 0.5, -0.9
11	CC(=O)SC1CC(=O)N(c2ccc(C(C)(C)C)cc2)C1=O (configuration not stated)
    -11%, 2, -1, 98*, -0.5, -4.3, -8.5
12	Cc1ccccc1CSCC(=O)Nc1ccccc1Br
    ., 0, 4, -2, 0.6, -2.5, 2.3
13	COc1ccc(/C=N/NC(=O)c2ccc(NC(=O)c3cccc([N+](=O)[O-])c3)cc2)c(OC)c1
    -3%, 6, ?, ., 8.2, 5.0, -2.0
14	COc1cc(-c2nnc(-c3cc(OC)c(OC)c(OC)c3)o2)cc(OC)c1OC
    -7%, 10, ?, 0, -2.0, 1.8, -9.5
15	CCOC(=O)N1CCN(C(=O)CCS(=O)(=O)c2cc3c(cc2Cl)NC(=O)CO3)CC1
    ., -1, 8, 9, 2.8, -0.2, -4.5
16	O=[N+]([O-])c1cccc(Cl)c1NCCNc1ncc(C(F)(F)F)cc1Cl
    -3%, -7, -2, 100*, -1.0, 0.3, 3.7
17	Cc1ccc(NC(=O)C(OC(=O)c2ccc(O)cc2)c2ccccc2)cc1Cl (configuration not stated)
    -7%, 3, ?, 2, -1.1, -4.0, 0.9
18	NC(=O)c1ccc(OCC2CCCO2)cc1 (configuration not stated)
    -6%, 0, 0, -4, 1.4, -1.2, 2.4
19	Fc1cc(F)cc(-c2c(-c3ccccc3)ncc3ccc(F)cc23)c1
    ., -6, ., -5, 0.9, ., -1.8
20	COc1ccc(CC(=O)NNC(=O)c2cc(C)oc2C)cc1OC
    2%, -7, 4, ., -0.3, 0.7, .
21	O=C(/C=C/c1ccco1)Nc1ccc(CN2CCOCC2)cc1
    25%, 0, -17, -1, 3.5, -1.8, 1.0
22	Cc1ccc(C2NC(=O)NC(O)(C(F)(F)F)C2C(=O)c2cccs2)o1 (configuration not stated)
    1%, 5, 36, -5, 0.2, -0.3, -6.2
23	COc1ccccc1Nc1nn2c(=O)c3ccc(C(=O)N4CCC(C)CC4)cc3nc2s1
    ., 14, 20, -20, -0.8, 1.1, 0.7
24	CCCCCN(C(=O)COC(=O)c1ccc(C)cc1)c1c(N)n(CCCC)c(=O)[nH]c1=O
    -6%, -3, ., 0, -2.2, ., -2.9
25	COc1cc2c(cc1OC)-c1cc(N3CCCc4ccccc43)nc(=O)n1CC2
    -1%, -1, -6, -10, -0.5, 9.0, -3.0
26	Cc1cc(C(=O)N2CCC(C(=O)O)CC2)c(C)o1
    -12%, -1, -5, 0, 5.3, -3.2, 2.1
27	CCCCN1C(=N)N([C@@H](CCC)CN2CCC[C@H]2CN2C(N)=NC[C@@H]2Cc2ccccc2)C[C@H]1[C@H](C)CC
    ., -2, ., ?, -0.4, ., -4.1
28	CN(CC(=O)Nc1ccc(F)c(F)c1F)C(=O)CCCc1nc2ccccc2c(=O)[nH]1
    14%, -4, ., -3, 0.1, ., -2.1
29	COc1ccc(Cl)cc1C(=O)C1CCCN(Cc2cnc(N3CCOCC3)s2)C1 (configuration not stated)
    5%, -12, -3, -23, 0.5, 1.8, 0.0
30	Cc1cccc(-n2c(C)cc(/C=C3\NC(=O)NC3=O)c2C)c1
    ?, -2, 7, ., 1.1, -1.5, 5.4

2 records picked at random from the list so far, as already listed:
Under each structure – Vif A3G, B2AR ag, Calb FLC, ALR inh, HNF4A DNA FP, RanGTP-Impb inh, LANA-H2B inh
24	CCCCCN(C(=O)COC(=O)c1ccc(C)cc1)c1c(N)n(CCCC)c(=O)[nH]c1=O
    -6%, -3, ., 0, -2.2, ., -2.9
16	O=[N+]([O-])c1cccc(Cl)c1NCCNc1ncc(C(F)(F)F)cc1Cl
    -3%, -7, -2, 100*, -1.0, 0.3, 3.7

(continued)
Under each structure – Vif A3G, B2AR ag, Calb FLC, ALR inh, HNF4A DNA FP, RanGTP-Impb inh, LANA-H2B inh
31	Cn1c(=O)c(C#N)c(-c2ccccc2)n2cnnc12
    -2%, -2, -8, 12, 2.1, -3.2, 2.3
32	CC(=O)c1ccc(NC(=S)Nc2cccc(S(=O)(=O)Nc3c(C)n(C)n(-c4ccccc4)c3=O)c2)cc1
    2%, 2, -7, ., 5.2, -2.6, 9.4
33	Cc1ccccc1-c1nc(CS(=O)(=O)CC(=O)NC2CCCCC2C)c(C)o1 (configuration not stated)
    ., 0, -8, -3, -1.8, -3.3, 3.1
34	COc1ccc(NC(=O)NCCCN2CCc3ccccc3C2)cc1
    5%, -1, -4, ., -0.7, -1.4, 6.1
35	COc1ccccc1N1CCN(C(CNS(=O)(=O)c2cc(F)ccc2F)c2cccnc2)CC1 (configuration not stated)
    4%, -1, -2, 58, 0.0, 1.5, 5.9
36	CN(C)C(=O)c1ccc(NC(=O)c2ccccc2Sc2ccccc2C#N)cc1
    -7%, -7, 34, 6, 1.6, 2.5, 0.9
37	CC(OC(=O)c1cc2ccccc2cc1O)C(=O)Nc1ccc(S(N)(=O)=O)cc1 (configuration not stated)
    2%, -2, -2, ., -2.5, 0.7, -4.3
38	COc1cc2oc(-c3ccc(O)cc3)cc(=O)c2c(OC)c1O
    ., 4, 42, ., 4.0, 4.4, -23
39	CCCS(=O)(=O)NCCc1cc2ccc(C)cc2[nH]c1=O
    -9%, -7, -11, -4, 0.7, -6.2, -6.8
40	CC(C)CN(C(=O)C1CC1)C1CCS(=O)(=O)C1 (configuration not stated)
    -8%, -3, 7, -1, 1.4, 5.0, 3.3
41	COc1ccccc1NC(=O)N1CCCC(CNC(=O)c2ccccc2Cl)C1 (configuration not stated)
    ., -6, 23, -2, -1.1, 1.9, 6.4
42	C#CCNC(=O)C1=C[C@@H](c2ccccc2)C[C@@H](OCc2ccc(CO)cc2)O1
    12%, -1, 0, -22, -4.3, ?, 3.7
43	N#Cc1ccccc1OCC(=O)Nc1ccccc1C(=O)NC1CC1
    -4%, -6, ., 0, -4.8, 1.0, -0.2
44	Cc1onc(-c2ccccc2)c1C(=O)NN1CCOCC1
    ., -9, ., -1, 0.1, ., -2.2
45	O=C(CSc1cn(CCNC(=O)c2ccc3ccccc3c2)c2ccccc12)NCc1ccco1
    0%, 11, 5, -7, -0.9, -3.5, -6.0
46	O=C(O)c1cc(S(=O)(=O)NCC2COc3ccccc3O2)ccc1Cl (configuration not stated)
    ., -2, ., ., -2.3, ., 1.8
47	c1ccc(CSc2ncnc3c2cnn3-c2ccccc2)cc1
    ., -2, -4, -2, -1.7, 0.8, 4.8
48	O=C(CSc1nnc(-c2ccccc2Br)o1)N1CCOCC1
    ., 1, 7, ., 0.0, 3.6, 20*
49	Cc1ccc(CSCCNC(=O)/C=C/c2ccc(Cl)cc2)cc1
    -4%, -2, -5, -1, -1.0, -4.1, -1.9
50	O=C(NCc1ccccc1)c1cccc2c1C(=O)c1ccc(/C=C/c3ccccc3)cc1S2(=O)=O
    ., -7, ., 11, 14, ., 5.2
51	CC[n+]1ccccc1/C=C/c1ccc(N(C)C)cc1
    -1%, -342, -56, ., 50*, -17, .
52	O=C(NNC(=O)c1ccc(F)c(S(=O)(=O)N2CCOCC2)c1)c1ccc([N+](=O)[O-])cc1
    ., -3, ., ., -0.5, ., 0.7
53	CNc1nc(Nc2ccc(Br)cc2)nc(N)c1[N+](=O)[O-]
    ?, 8, -3, ., 0.7, -2.6, -0.9
54	CCOC(=O)C1(CC2CCCCO2)CCN(C(=O)Nc2cccc(SC)c2)CC1 (configuration not stated)
    23%, -2, -31, -9, -1.3, -2.2, -5.1
55	COc1ccc(OC)c(CC(NC(C)=O)C(=O)NC2CCN(C(=O)c3cccc(C)c3)CC2)c1 (configuration not stated)
    ., -5, 4, ., 4.7, 4.6, .
56	COc1cc(CCC(=O)OCC(=O)c2ccc[nH]2)cc(OC)c1OC
    11%, 23, ., -22, 1.7, ., -0.8
57	O=C(/C=C/c1ccco1)N(Cc1ccccc1)C1CCS(=O)(=O)C1 (configuration not stated)
    ?, -2, 1, 1, -0.9, 4.3, -3.3
58	C(/CCc1ccccc1)=N\Nc1nc2ccccc2[nH]1
    20%, -4, -17, 98*, -0.7, 3.7, 3.9
59	O=C1C(Cl)=C(Nc2ccc(F)cc2)C(=O)N1CCc1ccccc1
    -8%, 11, 2, 6, 0.5, 2.7, -1.6
60	CC(=O)c1ccc(S(=O)(=O)N2CCCCC2C(=O)O)cc1 (configuration not stated)
    ., -2, -4, -1, 2.5, 1.1, -1.6

Records listed above that bear a hit mark in LANA-H2B inh.
No.	canonical_smiles	Vif A3G	B2AR ag	ALR inh	HNF4A DNA FP	RanGTP-Impb inh	LANA-H2B inh
48	O=C(CSc1nnc(-c2ccccc2Br)o1)N1CCOCC1	.	1	.	0.0	3.6	20*

More results.
Under each structure – Vif A3G, B2AR ag, Calb FLC, ALR inh, HNF4A DNA FP, RanGTP-Impb inh, LANA-H2B inh
61	O=c1cc(-c2ccccc2)[nH]n1-c1nc2ccccc2[nH]1
    17%, 18, -2, 45, -8.0, 26*, -3.8
62	Cc1ccc(NC(=O)C(C)N2C(=O)c3ccccc3C2=O)cc1C (configuration not stated)
    ., 7, -30, -9, -0.4, 2.8, 4.4
63	Cc1cccc2c1CC(C)(C)N/C2=C\C(N)=O
    8%, 7, -23, ., 2.2, -1.6, -1.1
64	Cc1cc(C)n(-c2ccnc3cc(Cl)ccc23)n1
    -4%, -5, 5, -1, 0.9, -0.5, -2.8
65	CC1CCCCN1C(=O)NC1CC(=O)N(c2ccc3c(c2)OCCO3)C1 (configuration not stated)
    -3%, -6, -2, -18, 0.2, 5.4, -0.4
66	CC(C)NC1=C(Cl)C(=O)c2ccccc2C1=O
    3%, 2, 19, -17, 1.3, -2.3, -2.8
67	O=C(O)C1CC=CCC1C(=O)Nc1ccccc1C(=O)N1CCN(c2ccc(Cl)cc2)CC1 (configuration not stated)
    11%, -5, 1, 15, -0.8, 2.7, -5.6
68	CCCCC(=O)Nc1ccc(NC(=O)CC)cc1OC
    6%, -6, -2, -5, -3.1, -4.7, -2.9
